FGF22 binding: FGF22 (human) thermal shift binding; calls only at 9.99 µM; Q9HCT0; recombinant FGF22 thermal shift, SYPRO orange fluorescence; percent of sucrose octasulfate shift, DMSO zero; 1.5% of 340,000 active;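 active = melting point raised past a set limit in the mean and every replicate; inconclusive = no clear call; three in four hits are not shown here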
Target sequence (Q9HCT0 whole entry, looked up): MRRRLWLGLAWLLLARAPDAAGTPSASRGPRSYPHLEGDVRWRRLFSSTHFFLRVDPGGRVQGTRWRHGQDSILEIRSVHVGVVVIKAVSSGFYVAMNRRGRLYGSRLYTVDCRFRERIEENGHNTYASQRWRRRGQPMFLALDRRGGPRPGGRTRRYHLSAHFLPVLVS
rRNA inh HTS: inhibits bacterial ribosomal RNA function over humanized ribosomes. E. coli WT GFP vs humanized-ribosome RFP mutants, fluorescence, 24 h; stronger effect = lower value; DMSO median 0, no signal -100. GFP signal change (wild-type ribosome), % (no concentration beside the values). 1.6% of 350,000 active. AID 720706;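 active = significant combined selectivity score with lowered wild-type GFP, culture density cut under 30%, mutant RFP and density less affected; inactive = any of these conditions unmet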; note: one replicate is shown; some compounds called inactive have numbers as strong as hits
ALR inh: blocks human ALR sulfhydryl oxidase activity; purified ALR, DTT oxidation, H2O2 HRP-luminol luminescence; inhibition, % (concentration not given with the values); 3.8% of 290,000 active; AID 485317; P55789;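 active = mean and each replicate at 75% or more; inconclusive = only one of the two met; inactive = neither met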;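 note: stock transfer was 7.5 nL into about 7.5 µL; 0% = neutral wells and 100% = wells with inactivated enzyme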
Target sequence (P55789 whole entry, looked up): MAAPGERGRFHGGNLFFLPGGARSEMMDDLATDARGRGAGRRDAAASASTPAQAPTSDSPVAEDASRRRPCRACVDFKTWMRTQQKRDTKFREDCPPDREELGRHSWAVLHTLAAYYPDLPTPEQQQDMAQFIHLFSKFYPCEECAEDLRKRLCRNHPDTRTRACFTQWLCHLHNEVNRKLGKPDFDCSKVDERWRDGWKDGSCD
E coli growth: E. coli growth inhibition; Escherichia coli growth, OD600, 23 h; stronger effect = lower value; OD600 absorbance (concentration not given with the values); 0.21% of 330,000 active; AID 1053175;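 active = OD600 absorbance below the run mean of sample wells minus 3.6 SD, in any replicate, cut at about 0.56 in these data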;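 note: stock transfer was 300 nL into about 60 µL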
AF4-AF9 inh: blocks AF4 peptide binding to human AF9. 0.47% of 350,000 active. AID 651704. P42568. AlphaScreen, biotin-AF4 peptide binding to FLAG-AF9. inhibition, % at 10 µM;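 active = every replicate reaching a set inhibition limit, whatever the replicate mean, cut at about 25% in these data; inconclusive = mean inhibition reaches that limit but some replicates miss it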;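 note: 0% = plate neutral control median and 100% = total signal loss; the record names both 10 and 1 µM as test concentration; the first replicate is given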
Vif TR-FRET: HIV-1 Vif–A3G interaction blockers – biochemical, TR-FRET, GST-Vif 1-94, biotin-A3G peptide, dose response retest, primary screen (AID 1117319) | TR-FRET GST-Vif / biotin-A3G peptide binding; higher % means a stronger effect; test concentration not given here; strong numbers were not always called active | one-dose inhibition, %; IC50 in µM for titrated hits | 0.57% of 260,000 active;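 active = above the screen mean plus three standard deviations and confirmed in dose response; inconclusive = results disagree or hit not tested in dose response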;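 note: Vif residues 1-94 fused to GST binding biotinylated APOBEC3G peptide 110-148; 0% = full assay without inhibitor and 100% = GST in place of GST-Vif; retest series ran down from 100 µM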
HNF4A DNA FP: change in binding of human HNF4 alpha to DNA | AID 1224865 | HNF4a-FITC DNA binding, fluorescence polarization, 1 h | activity change, % at 10 µM | 0.3% of 360,000 active | P41235; in the data active = activity change above about 30%, passing the limit was not always enough;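 note: controls were the assay level and a saturating level of protein; the project sought stronger binding though the title names inhibitors; some compounds called inactive have numbers as strong as hits; positive values seem to mean higher polarization but the record does not say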
Target sequence (P41235 whole entry, looked up): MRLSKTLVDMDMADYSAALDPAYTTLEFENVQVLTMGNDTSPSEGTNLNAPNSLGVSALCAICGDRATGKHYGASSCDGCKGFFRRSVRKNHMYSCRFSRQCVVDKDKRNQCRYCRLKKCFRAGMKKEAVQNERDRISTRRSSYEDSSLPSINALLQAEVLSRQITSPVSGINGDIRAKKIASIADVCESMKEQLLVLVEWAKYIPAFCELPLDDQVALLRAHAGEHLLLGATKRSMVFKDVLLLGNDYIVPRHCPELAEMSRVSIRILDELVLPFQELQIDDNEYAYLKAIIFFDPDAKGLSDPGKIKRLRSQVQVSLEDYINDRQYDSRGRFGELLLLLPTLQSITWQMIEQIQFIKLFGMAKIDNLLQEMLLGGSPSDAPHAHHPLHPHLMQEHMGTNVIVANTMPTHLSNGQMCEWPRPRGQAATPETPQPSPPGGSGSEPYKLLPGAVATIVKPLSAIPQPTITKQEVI
rRNA inh HTS OD600: second read-out of rRNA inh HTS, no call of its own (marks repeat the call); OD600 change, %; measured here: OD600 growth;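 optical density of the mix in the first replicate; 0 = DMSO median and -100 = no signal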
rRNA inh HTS RFP: second read-out of rRNA inh HTS, no call of its own (marks repeat the call); RFP signal change, %; measured here: RFP humanized mutant strains;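 first replicate; 0 = DMSO median and -100 = no signal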
* = called active by the depositor; i = inactive; u = inconclusive; x = no result given. Some of the compounds tested. The share of hits here may be higher or lower than overall.

SMILES | FGF22 binding | rRNA inh HTS | rRNA inh HTS OD600 | rRNA inh HTS RFP | ALR inh | E coli growth | AF4-AF9 inh | Vif TR-FRET | HNF4A DNA FP
Cc1cc(C)n2c(NCc3ccccc3)c(-c3cc4ccccc4o3)nc2n1 | i | 7 | -1 | 13 | x | x | -0.2 | x | 61*
C#CCN(C[C@@H]1[C@@H](OC(=O)NCc2ccccc2F)[C@@H](OC(=O)NCc2ccccc2F)Cn2c(=O)ccc(=O)n21)S(=O)(=O)c1ccc(C)cc1 | i | 1 | 0 | 1.4 | x | x | -3.1 | 2% | -2.1
C[C@H]1CN([C@@H](C)CO)C(=O)c2cc(-c3cccc(F)c3)cnc2O[C@H]1CN(C)C(=O)Nc1ccccc1F | i | -2 | -2 | 0.3 | x | x | -2.5 | x | x
O=C(CSc1nnc(Cc2ccccc2)n1C1CCCCC1)N1CCOCC1 | x | x | x | x | 1 | 0.66 | x | -1% | -1.3
C=CCn1c(SCc2nc3ccccc3nc2C)nnc1-c1ccoc1C | x | x | x | x | 7 | 0.69 | x | 9% | -1.7
C=CCSc1n[nH]c2nc3c(c(=O)n12)C1(CCCC1)Cc1ccccc1-3 | x | x | x | x | -10 | 0.79 | x | 30% | -4.8
O=C(NC(=S)N1CCN(c2ccc([N+](=O)[O-])cc2)CC1)c1ccc(F)cc1 | i | -55 | -69 | -28 | -2 | 0.69 | 2.5 | 6% | 1.1
CCOC(=O)c1ccc(NC(=O)N2CCN(c3ccccc3OC)CC2)cc1 | i | -12 | -13 | -1.4 | 4 | 0.64 | -0.4 | 2% | 1.7
O=C(O)CCCCCCCCCCCNC(=O)NC12CC3CC(CC(C3)C1)C2 | i | 14 | 10 | -6.9 | -2 | 0.7 | -0.7 | x | -3.4
CCOc1cc(C(=O)NC(=S)Nc2cccnc2)cc(OCC)c1OCC | i | x | x | x | 15 | 0.66 | -6.2 | x | 0.4
O=C(CNC(=O)c1cnccc1C(F)(F)F)c1cccc(Cl)c1 | i | 8 | 6 | 3.6 | 2 | 0.66 | -2.2 | -10% | 3.0
CC(O)CNCCNCc1cccs1 (stereo not drawn) | i | 7 | 2 | -0.2 | 12 | 0.73 | -2.2 | -4% | 0.9
C[C@@H]1CN([C@@H](C)CO)C(=O)c2cccc(NC(=O)C3CCCCC3)c2O[C@@H]1CN(C)CC1CC1 | i | 2 | 9 | -1.3 | x | x | -1.9 | x | x
Cc1noc(C)c1NC(=O)Nc1cccc2c1O[C@@H](CN(C)Cc1ccc(C(F)(F)F)cc1)[C@@H](C)CN([C@@H](C)CO)C2=O | i | -1 | 3 | 0.3 | x | x | -0.4 | x | x
CCNC(=O)C[C@@H]1CC[C@H]2[C@@H](COC[C@H](O)CN2Cc2ccncc2)O1 | i | -1 | 12 | -4.6 | x | x | -3.2 | x | x
CNC(=O)Nc1cccc(NC(=O)NC)n1 | x | x | x | x | -1 | 0.71 | x | 3% | -2.5
Clc1cccc(-c2nn3c(Cn4cnc5ccccc54)nnc3s2)c1 | i | 1 | 2 | -5.3 | x | 0.71 | 3.6 | 1% | 4.1
COCCn1c(SCC(=O)NCCc2ccccc2)nc2c([nH]c3ccccc32)c1=O | x | x | x | x | -3 | 0.76 | x | 0% | 0.3
CCn1nnnc1SCC(=O)c1ccc(NC(C)=O)cc1 | x | x | x | x | 9 | 0.72 | x | 0% | 2.2
CCN(CC)S(=O)(=O)c1cccc(C(=O)N/N=C(\C)c2ccc(O)cc2O)c1 | i | -33 | -44 | -6.9 | 86* | x | 3.6 | 5% | 27
CCN(CC(=O)Nc1ccc(NC(C)=O)cc1)C(=O)C1CCC1 | i | 9 | 19 | 1.2 | -5 | 0.63 | -3.7 | x | -0.9
COc1ccc(-c2csc(=NCCO)n2-c2ccccc2)cc1 | i | -16 | -7 | -5.0 | 99* | 0.64 | 33* | -14% | 2.0
O=c1c2ccccc2nnn1CSc1ccc2ccccc2n1 | x | x | x | x | 19 | 0.68 | x | x | -0.1
O=C(c1ccncc1)N1CCCCN2[C@@H](CO)[C@H](c3ccc(-c4ccccc4)cc3)[C@@H]2C1 | i | 3 | 12 | 2.3 | x | x | -4.7 | x | x
C=CCc1cc(Cl)ccc1OC(=O)Nc1cccc(Cl)c1 | i | -9 | -1 | 3.1 | -11 | 0.65 | x | 68% | 2.9
c1ccc(Nc2nc(-c3ccccc3)ns2)cc1 | i | 7 | 15 | -1.4 | -16 | 0.71 | -1.1 | x | -0.4
CC1CCN(C(=O)Cn2ncc3c([nH]c4ccccc43)c2=O)CC1 | i | -1 | 5 | -1.5 | -4 | 0.64 | -4.5 | x | -19
CCOC(=O)c1ccccc1NC(=O)CSc1nc2ccccc2o1 | x | x | x | x | -4 | 0.68 | x | 8% | -1.2
CC(C)N(C)C1CCN(C(=O)Nc2ccc(Cl)c(Cl)c2)CC1 | x | x | x | x | 3 | 0.67 | x | 1% | 3.5
CCC1=Nc2ccccc2-c2nnc(SC)nc2O1 | x | x | x | x | 6 | 0.77 | x | 5% | 1.9
Cc1ccsc1-c1nc(CSCC(=O)N2CCN(c3ccccc3)CC2)c(C)o1 | i | -10 | -15 | 1.1 | 89* | 0.76 | 1.9 | 1% | 6.1
Cn1c(C(=O)Nc2ccccc2)cc2sccc21 | x | x | x | x | 7 | 0.68 | x | -8% | 0.9
C=C(C)c1cccc(C(C)(C)NC(=O)NCc2cccnc2)c1 | i | -4 | -11 | -0.4 | 0 | 0.71 | -1.4 | x | -2.5
O=C(CNC(=O)c1ccccc1F)Nc1ccc2c(c1)OCO2 | i | x | x | x | -27 | 0.67 | 3.5 | x | 1.4
CSc1n[nH]c(=O)n1-c1cccc(Cl)c1 | i | x | x | x | 1 | 0.64 | 3.2 | -2% | 1.5
Cc1cccc(OCC(=O)Nc2cc(C)on2)c1 | x | x | x | x | -7 | 0.68 | x | u | -6.1
C[C@@H]1CN([C@@H](C)CO)C(=O)c2cc(NS(=O)(=O)c3ccccc3)ccc2O[C@H]1CN(C)Cc1ccc(-c2ccccc2)cc1 | i | 0 | -11 | 4.2 | x | x | -1.5 | x | x
COc1cc(C=O)c(Br)cc1OCC(=O)NCCc1ccccc1 | i | 9 | 15 | -1.0 | 0 | 0.71 | -2.0 | -32% | 1.3
COc1ccc(CNCCNC(=O)c2cccs2)cc1OC | i | 18 | 15 | 2.2 | -2 | 0.66 | -0.8 | 1% | 1.9
C[C@H]1CN([C@@H](C)CO)C(=O)c2cc(NC(=O)C3CCCCC3)ccc2O[C@@H]1CN(C)S(=O)(=O)c1ccc(Cl)cc1 | i | -8 | -4 | -0.4 | x | x | -15 | x | x
CCCNC(=O)[C@@H]1[C@@H](CO)[C@@H]2Cn3c(ccc(-c4ccccc4F)c3=O)[C@@H]2N1CC1CC1 | i | -4 | -5 | 2.9 | x | x | -1.1 | x | x
C/C=C/c1cnc2c(c1)C(=O)N([C@@H](C)CO)C[C@@H](C)[C@@H](CN(C)C(=O)Nc1ccccc1F)O2 | i | 3 | 6 | -2.8 | x | x | -1.7 | x | x
COC1C(C)=C(C)C(=O)N1Cc1ccccc1 (stereo not drawn) | i | 13 | 13 | 1.3 | -2 | 0.71 | -0.3 | 0% | 5.1
O=c1c2[nH]c3ccc(F)cc3c2nc2n1CCS2 | i | -3 | -8 | -1.1 | -4 | 0.67 | -2.7 | -5% | -0.6
COc1ccc(NS(=O)(=O)c2ccc(C)c(NC(=O)CN3C(=O)NC4(CCCC4)C3=O)c2)cc1 | i | 3 | 10 | -0.5 | x | 0.67 | 41* | x | 40
O=C(c1nnc(-c2ccncc2)o1)c1ccccc1Cl | x | 10 | 9 | -0.5 | -2 | 0.7 | x | 3% | 3.3
CCc1ccccc1OCCCN1CCCC1 | i | 15 | 11 | 1.4 | 0 | 0.65 | 2.0 | x | 2.1
CC(=O)C1=CCC(c2ccccc2)N(S(C)(=O)=O)C1 (stereo not drawn) | x | 4 | 16 | -0.3 | x | x | -4.5 | x | 0.3
O=C(NCc1cccnc1)c1cccc(NC(=O)c2ccco2)c1 | x | 7 | 12 | 6.0 | 34 | 0.66 | x | 22% | 1.1
O=C(COc1ccc(Cl)cc1Br)Nc1ccncc1 | i | -16 | -9 | -9.7 | -2 | 0.62 | -4.1 | x | 4.4
COc1cccc(-c2noc(Cn3nc(C(=O)O)c4ccccc4c3=O)n2)c1 | i | -3 | -3 | 2.0 | -3 | 0.7 | -0.9 | x | 1.5
Cc1ccc(S(=O)(=O)Nc2ccc3c(c2)C(=O)N([C@@H](C)CO)C[C@H](C)[C@H](CN(C)Cc2ccccc2)O3)cc1 | i | 2 | -10 | 4.3 | x | x | 2.3 | x | x
O=C(C[C@@H]1CC[C@H]2[C@@H](COC[C@@H](O)CN2Cc2ccc3c(c2)OCO3)O1)Nc1ccccc1 | i | -6 | -17 | -6.0 | x | x | 1.5 | x | x
O=C(CSc1ccccc1)Nc1ccc(N2CCOCC2)cc1 | x | x | x | x | 72 | 0.72 | x | 23% | 3.4
COc1ccc(C(=O)COC(=O)C2CC3CCCC(C2)C3=O)cc1Br (stereo not drawn) | i | 3 | -1 | -0.3 | -13 | 0.69 | -1.0 | 1% | 8.5
Cc1nc(CN(C)c2ncnc3ccc(-c4ccc5c(c4)OCO5)cc23)cs1 | i | -54 | -79 | -20 | x | x | -0.7 | x | 0.8
CCOc1ccc(NC(=O)/C(=C\c2ccc(OC(C)=O)c(OC)c2)NC(C)=O)cc1 | i | 6 | 8 | 0.4 | 36 | 0.72 | -2.0 | 13% | 0.6
CCc1ccc(-c2nn(Cc3ccccc3)cc2/C=C/C(=O)O)cc1 | x | x | x | x | 80* | 0.7 | x | 2% | 0.3
CC(C)(C)c1cc(C(=O)NNc2cc(C(F)(F)F)ccc2Cl)n(Cc2ccccc2)n1 | i | x | x | x | -1 | 0.7 | x | -1% | -4.7
CCC(=O)Nc1ccc2c(c1)OC[C@@H](C)N(C(=O)NC(C)C)C[C@H](C)[C@@H](OC)CN(C)C2=O | i | 1 | 2 | -0.4 | x | x | -2.6 | x | x
O=C(CSCC(=O)N1CCCc2ccccc21)Nc1nc(-c2ccccc2)cs1 | i | -15 | -20 | 3.3 | 100* | 0.76 | -2.6 | -7% | 2.1
COc1ccc(C(=O)COC(=O)C2CCN(c3ccc(C(F)(F)F)cn3)CC2)c(OC)c1 | i | -2 | -5 | -4.0 | x | 0.7 | -1.7 | 3% | 2.3
CCN(CC)CCSc1nc(O)c(-c2ccccc2)c(=O)n1-c1ccccc1 | i | 20 | -19 | -0.4 | x | 0.7 | 1.8 | x | 0.6

Assay outcomes from PubChem.
